# RecA intein inh = inhibitors of M. tuberculosis RecA intein splicing; P9WHJ3; cell-free RecA intein splicing, fluorescence; inhibition, %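 (about 9 µM by stock and volumes)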; 0.75% of 290,000 active; in the data active = inhibition above about 30%; inconclusive = no clear call, values can overlap the other calls;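 also: 0% = vehicle wells and 100% = reference inhibitor control wells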
# Target sequence (P9WHJ3 whole entry, looked up): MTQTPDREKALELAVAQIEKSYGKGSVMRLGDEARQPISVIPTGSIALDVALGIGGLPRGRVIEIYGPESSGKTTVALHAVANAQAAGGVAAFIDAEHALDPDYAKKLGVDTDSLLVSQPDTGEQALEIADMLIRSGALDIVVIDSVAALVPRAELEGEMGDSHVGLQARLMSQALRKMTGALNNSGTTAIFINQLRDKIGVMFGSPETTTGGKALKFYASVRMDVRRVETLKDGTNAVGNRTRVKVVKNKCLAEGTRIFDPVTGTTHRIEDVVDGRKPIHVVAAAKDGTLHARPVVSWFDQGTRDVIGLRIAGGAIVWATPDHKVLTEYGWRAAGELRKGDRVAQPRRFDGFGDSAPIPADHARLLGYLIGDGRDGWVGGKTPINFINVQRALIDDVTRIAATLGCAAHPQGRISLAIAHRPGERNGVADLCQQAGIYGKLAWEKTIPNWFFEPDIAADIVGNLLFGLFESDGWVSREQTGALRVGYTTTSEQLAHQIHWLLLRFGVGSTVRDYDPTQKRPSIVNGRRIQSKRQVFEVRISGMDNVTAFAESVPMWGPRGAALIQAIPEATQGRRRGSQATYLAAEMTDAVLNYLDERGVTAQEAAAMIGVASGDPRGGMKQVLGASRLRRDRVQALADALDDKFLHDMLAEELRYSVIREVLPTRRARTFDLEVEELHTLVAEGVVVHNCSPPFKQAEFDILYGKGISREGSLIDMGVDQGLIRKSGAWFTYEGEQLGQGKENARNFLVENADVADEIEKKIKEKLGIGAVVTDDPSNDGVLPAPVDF
# YopH inh = blocks Yersinia enterocolitica YopH tyrosine phosphatase; fluorescence Ex485/Em525; inhibition, %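 (about 10 µM by stock and volumes)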; 0.16% of 140,000 active; AID 898;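 active = inhibition of 50% or more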;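 also: controls were vehicle for no effect and minimum signal wells for full effect; inactives centre near -20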
# Mtb growth = M. tuberculosis H37Rv growth inhibitors, H37Rv strain (AID 1626); M. tuberculosis H37Rv growth inhibition; higher % means a stronger effect; inhibition, % at 10 µM; hits with a dose series show IC50 in µM; 0.95% of 220,000 active;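 active = confirmed in a dose series; inconclusive = inhibition above 80% but not taken into the dose series; inactive = below 80% or under 30% at every dose of the series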;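 also: bacteria incubated seven days before Alamar blue readout; 0% = bacteria only wells and 100% = bacteria with antibiotic wells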
# Mtb bLac sens = beta-lactam sensitization of Mtb H37Rv. M. tuberculosis H37Rv growth with meropenem, percent inhibition; hits of this screen are not shown here. inhibition, % at 25 µM. 0.27% of 330,000 active;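 active = about 74% or more and at least 40 points above the plate without the antibiotic, then above 30% in a dose series; inconclusive = first-round hits that could not be retested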;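 also: growth measured after seven days incubation then overnight dye step; 0% = bacteria only wells and 100% = bacteria with antibiotic; twin plates without the antibiotic show which effects depend on it; some results filed as inactive read as strong as hits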
# Arbovirus inh = arbovirus infection inhibition | 0.37% of 200,000 active | arbovirus infection cell-based antiviral screen | inhibition, % at 10 µM;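 active = inhibition from about 30%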;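 also: bluetongue infection of BSR cells; cell survival read as ATP light after 72 h; 0% = infected wells without compound and 100% = uninfected wells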
# Arbovirus inh repeat = second read-out of Arbovirus inh, no call of its own (marks repeat the call); inhibition, %; measured here: 10K subset replicate screen; many hits read low in the repeat;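 first of two repeat runs on a subset; 0% = infected and 100% = uninfected wells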
# * = called active by the depositor; ? = inconclusive; nt = no result given.
SMILES,RecA intein inh,YopH inh,Mtb growth,Mtb bLac sens,Arbovirus inh,others
Cc1cc(C)c(OCC(O)CN2CCN(c3ccccn3)CC2)c(C)c1 (configuration not stated),0.0,nt,-4%,-4,-6,
O=Cc1cccc(Oc2ncccn2)c1,-3.2,nt,3%,6,6,
O=C(CN(CC1CCCO1)C(=O)CNS(=O)(=O)c1ccc(F)cc1)NC1CCCCC1 (configuration not stated),-0.9,nt,nt,-3,nt,
COc1ccc(-n2nc(C(=O)NCC(=O)N3CCN(c4ccccn4)CC3)c3ccccc3c2=O)cc1,-0.1,2,-1%,-1,-24,
Cc1ccccc1NC(=O)COC(=O)CNC(=O)c1sc2ccccc2c1Cl,-0.6,-29,0%,-1,9,
O=C(CCC(=O)Nc1ccc(Cl)cc1Cl)NNC(=O)[C@@H]1CCCC[C@@H]1C(=O)O,nt,-6,11%,-5,-2,
COc1ccc(S(=O)(=O)N2CCOCC2)cc1NC(=O)CN1CCN(C)CC1,-0.1,nt,nt,-8,nt,
Cc1cc(C(=O)CSc2nnc(-c3ccccc3)n2Cc2ccc3c(c2)OCO3)c(C)n1C,nt,-28,-4%,0,-11,
N#CC1=C(N)N(c2ccccc2Sc2ccccc2)C(=O)C1,8.4,-14,-5%,40,1,
O=C(NC1CCCCC1)C(c1ccc(F)cc1)N(CCCN1CCOCC1)C(=O)c1ccc(CN2CCOCC2)o1 (configuration not stated),-0.7,nt,nt,-19,nt,
CSC(=S)N/N=C/c1ccc(Br)cc1,-3.3,nt,72%,94,-7,
CC(=O)c1ccc(N2CCN(C(=O)CCCn3c(=O)[nH]c4ccsc4c3=O)CC2)cc1,-2.1,nt,nt,-4,nt,
CCc1ccc(Nc2cnn(C34CC5CC(CC(CC(=O)O)(C5)C3)C4)c(=O)c2Cl)cc1,-0.9,nt,-2%,1,12,
COc1ccc(N(CC(=O)N/N=C/c2ccc(OC)cc2OC)S(=O)(=O)c2ccccc2)cc1,0.4,nt,nt,-3,nt,
Cc1ccccc1CC1SC(N)=NC1=O (configuration not stated),1.6,nt,nt,-2,nt,
O=C(c1ccc2ccccc2c1)N1CCOCC1,-0.9,nt,nt,-4,nt,
Cc1cc(C)n2c(SCC(=O)Nc3ccc(F)cc3)nnc2n1,nt,nt,-6%,1,nt,
CCN(CC)S(=O)(=O)c1cc(C(=O)Nc2cc(Cl)ccc2N2CCN(C)CC2)ccc1Cl,4.2,-4,-2%,65,-20,
COc1ccc(-n2nc(C(=O)NCC(=O)NC3CCCCCC3)c3ccccc3c2=O)c(OC)c1,3.5,nt,nt,7,nt,
Cc1cc(C)c(S(C)(=O)=O)c(NN)n1,-4.0,nt,4%,-1,7,

# Three structures from above, ordered by length of the SMILES, ascending.
SMILES,RecA intein inh,YopH inh,Mtb growth,Mtb bLac sens,Arbovirus inh,others
CC(=O)c1ccc(N2CCN(C(=O)CCCn3c(=O)[nH]c4ccsc4c3=O)CC2)cc1,-2.1,nt,nt,-4,nt,
COc1ccc(-n2nc(C(=O)NCC(=O)NC3CCCCCC3)c3ccccc3c2=O)c(OC)c1,3.5,nt,nt,7,nt,
COc1ccc(N(CC(=O)N/N=C/c2ccc(OC)cc2OC)S(=O)(=O)c2ccccc2)cc1,0.4,nt,nt,-3,nt,

# Other records.
SMILES,RecA intein inh,YopH inh,Mtb growth,Mtb bLac sens,Arbovirus inh,others
O=C(Cn1cnc2ccccc21)N/N=C/c1ccc([N+](=O)[O-])cc1,nt,-33,1%,-3,-11,
Cn1nc(C(F)(F)F)c(-c2ccc(F)cc2)c1NC(=O)CSCC(=O)O,0.0,nt,3%,-7,nt,
NC(=S)c1c(Cl)cc(C(F)(F)F)cc1Cl,2.7,nt,-11%,-10,nt,
NNC(=O)c1ccc(Cl)cc1Cl,nt,-20,-1%,-12,-2,
Cn1c(O)c(C=NCCN2CCN(C(=O)c3ccccc3)CC2)c(=O)n(C)c1=O,nt,-34,-6%,-8,0,
Cc1ccc(C(=O)NC(=S)Nc2ccc(N3CCOCC3)cc2)cc1,0.0,nt,1%,8,-20,
Cc1nc(SCC(N)=O)[nH]c(=O)c1Cc1ccc(OC(C)C)cc1,-5.2,2,-7%,-2,4,
COc1ccc(/C=C2\N=C3CCCN3C2=O)cc1,-15,nt,0%,7,nt,
CCOc1nc(-c2ccc(C)cc2)ccc1-c1noc(-c2cccnc2)n1,-6.2,4,7%,nt,7,
CC(=O)Nc1cccc(NC(=O)c2sc3ncn(CC(=O)N4CCCCC4)c(=O)c3c2C)c1,nt,8,0%,nt,4,
O=C(OCC(=O)N1CCOCC1)c1ccc(O)cc1,-0.2,nt,nt,-3,nt,
CN1CCN(C(=S)c2cn(CCOc3ccccc3)c3ccccc23)CC1,2.5,nt,13%,5,-2,
O=C1/C(=C\Nc2ccccc2)CCN1c1ncccn1,-0.6,-31,-3%,-4,0,
Cc1nc(Nc2ccc(O)cc2)c2c3c(sc2n1)CCCC3,30*,nt,4%,-1,nt,
C=C(C)COc1ccc2c(CC)cc(=O)oc2c1C,-0.3,-34,15%,8,-13,
O=C(Nc1ccc2c(c1)OCCO2)C(c1ccc(F)cc1)N1CCCCC1 (configuration not stated),0.6,1,-3%,-6,-15,
CC1C(OC(=O)CCC(=O)NC(C)(C)CO)O[C@H]2OC3(C)CC[C@H]4[C@H](C)CCC1C24OO3 (some centres not stated),-0.8,nt,nt,3,nt,
O=C(CSCc1ccccc1)N/N=C/c1ccccc1OCc1ccccc1,6.5,-24,0%,-8,16,
COc1ccc(N(C)S(=O)(=O)c2cccc(C(=O)OCC(=O)Nc3sc4c(c3C#N)CCCCC4)c2)cc1,1.7,4,0%,-2,8,
CC(NS(=O)(=O)c1ccc2c(c1)CC(=O)N2C)c1ccccc1 (configuration not stated),17,nt,nt,10,nt,
CC1CCCC(NC(=O)c2cccc(S(=O)(=O)N3CCCCC3)c2)C1C (configuration not stated),0.7,nt,nt,-5,nt,
O=C(Nc1ccc2oc(-c3cccnc3)nc2c1)c1cc2ccccc2o1,-0.8,-30,9%,-8,7,
COc1ccc(-c2c3c(nc4sc5c(=O)[nH]c(C)nc5c24)CCC3)cc1,-4.0,-28,8%,1,9,
CCc1ccccc1NC(=O)C1CCN(S(C)(=O)=O)CC1,3.3,nt,nt,83,nt,
CC(C)N=C1NN=C(c2cccs2)C(CC(=O)O)S1 (configuration not stated),2.2,nt,-11%,-9,nt,
CCC(C)(C)n1nnnc1C(c1cc2cc(C)cc(C)c2[nH]c1=O)N1CCCC1 (configuration not stated),nt,-23,3%,-4,-6,
COc1cc2c(c(OC)c1)C(c1cccc(OC)c1OC)CC(=O)N2 (configuration not stated),0.4,-16,7%,-7,-7,
CCc1ccc(C(=O)c2cncc(Br)c2)cc1,0.4,-27,-5%,-6,18,
O=C(Nc1cccc(Cl)c1)NC1(C(=O)NCc2cccs2)CCCCC1,nt,-31,-6%,5,2,
CCOc1ccc(CCNC(=O)c2cccc(S(=O)(=O)N3CCCC3)c2)cc1OCC,1.2,nt,nt,-21,nt,
Cc1ccc(S(=O)(=O)Cc2cn3cccnc3n2)cc1,6.6,-35,-6%,nt,-2,
COC(=O)c1c(N)c(C#N)c(C)n1-c1ccccc1,0.4,-50,4%,-5,-7,
O=C(Nc1ccc(S(=O)(=O)NCC2CCCO2)cc1)c1cccc(F)c1 (configuration not stated),-0.2,nt,nt,-5,nt,
COC(=O)c1ccc(/C=N/NC(=O)C2CC(=O)N(c3ccc(OC)cc3)C2)cc1 (configuration not stated),-2.5,nt,nt,3,nt,
O=C1NC(c2ccc3c(c2)OCO3)Oc2ccccc21 (configuration not stated),-3.3,-38,1%,2,9,
CCCCNC(=S)N1CCn2cccc2C1c1cccnc1 (configuration not stated),1.8,nt,-3%,2,12,
c1ccc(-c2ccc(-n3ccnc3)cc2)cc1,5.2,-33,2%,96,-1,
CC(C)CNC(=O)c1cc(=O)[nH]c2ccc(S(=O)(=O)Nc3ccc(F)cc3)cc12,-0.3,nt,nt,-1,nt,
O=C(NCCCn1ccnc1)c1csc2ccccc12,0.0,-4,-6%,-3,5,
COC(=O)C1=C(C)N(c2cc(Cl)cc(Cl)c2)C(=O)C1,1.7,-8,1%,73,0,Arbovirus inh repeat=1
NC(Cc1c[nH]c2ccccc12)C(=O)NCc1ccccc1 (configuration not stated),-2.4,nt,nt,-3,nt,
Cc1c(C(=O)N2CCCCC2)c(S(=O)(=O)N2CCC(C)CC2)c(C)n1C,-2.5,nt,nt,1,nt,
O=C(O)CC1(CC(=O)NCc2cc(F)cc3c2OCOC3)CCCCC1,-1.0,nt,7%,-3,nt,
Cn1c(=O)c2sccc2n(Cc2ccc(Br)cc2)c1=O,1.3,nt,nt,-15,nt,
COc1ccc(S(=O)(=O)Nc2ccccc2C(=O)N2CCOCC2)cc1Br,-2.1,nt,nt,3,nt,
COc1cccc(NC(=O)c2ccc(OC(F)(F)F)cc2)c1,1.6,nt,nt,-2,nt,
CC1CCN(CCC(=O)N2CCCc3c2c(=O)oc2ccc(O)cc32)CC1,8.6,61*,-5%,-19,-9,
CCOC(=O)N1CCC(N2CCCC(C(=O)c3cc(F)ccc3OC)C2)CC1 (configuration not stated),-2.2,nt,2%,-4,-1,
Cc1cccc(C2(c3cccc(C)c3)CC2C(=O)Nc2ccc([N+](=O)[O-])cc2O)c1 (configuration not stated),-3.7,-15,10%,10,-44,
Cc1noc(C(=O)Nc2cccnc2)c1Cl,-0.8,-54,-7%,3,0,
O=C(CNC(=O)c1ccco1)NCC(=O)OCc1ccc(C(=O)Oc2ccc(Cl)cc2)cc1,8.4,-17,-3%,2,3,
CCOc1ccccc1C(=O)NC1CCN(CC(=O)Nc2cc(OC)ccc2OC)CC1,1.5,nt,nt,2,nt,
S=C1NC2(CCCCC2)NN1c1ccccc1,-1.8,nt,78%,67,-28,
COc1ccc(CNCCc2cccc(F)c2)c2ccccc12,-0.9,nt,nt,8,nt,
COc1ccc(F)cc1S(=O)(=O)NCc1ccccc1,1.1,-14,7%,-2,-3,
C#Cc1ccc([C@H]2C=C(C(=O)NCc3nc4ccccc4[nH]3)O[C@@H](OCc3ccc(CO)cc3)C2)cc1,5.7,nt,-5%,10,nt,
CNC(=O)C1CCC(=O)N1Cc1ccccc1Cl (configuration not stated),nt,-20,-3%,-8,2,
O=S(=O)(NCC(c1cccnc1)N1CCN(c2ccccc2)CC1)c1cc(F)ccc1F (configuration not stated),2.4,-109,2%,-3,10,
CCO[C@H]1OC(C(=O)O)=C[C@@H](C2CCCCC2)[C@@H]1CCCO,-0.1,nt,-5%,-1,-1,
COC(=O)c1sc(NC(=S)NC(=O)c2ccc(C)cc2)nc1C,-0.7,nt,2%,-3,nt,

# Following part.
SMILES,RecA intein inh,YopH inh,Mtb growth,Mtb bLac sens,Arbovirus inh,others
O=C(CSc1nnc(CCCN2C(=O)c3cccc4cccc(c34)C2=O)n1-c1ccccc1)N1CCN(CCO)CC1,0.2,-3,-11%,-13,1,
Cc1cc(-c2cccs2)c2c(N)c(C(=O)c3ccc4c(c3)OCO4)sc2n1,-4.8,-25,0%,4,0,
O=C(NNc1ccc([N+](=O)[O-])cc1)c1ccccc1Cl,-0.7,nt,?,-4,-14,
C/C(=N\N=C(/N)SC1CC(=O)N(c2ccc(Br)cc2)C1=O)c1cccs1 (configuration not stated),3.2,-39,9.2µM*,99,-18,
COc1ccc(NC(=S)N2CCC(c3ccc(C)cc3)C2)cc1 (configuration not stated),-1.2,nt,nt,7,nt,
C[C@@H](O)[C@@H]1NC(=O)c2cc([N+](=O)[O-])cc(I)c2NCC[C@@H](C(N)=O)NC(=O)CNC1=O,nt,-13,-4%,-23,3,
Cc1cccc(C)c1N1CCN(C(=O)c2ccc3c(c2)OCO3)CC1,9.1,nt,nt,8,nt,
CC(C)n1nnnc1-c1cccc(Cl)c1,nt,3,-3%,-12,-3,
CCOC(=O)C1=C(C)Nc2ncnn2C1/C=C/c1ccccc1 (configuration not stated),-0.7,-6,-4%,4,-8,
COc1ccc(OC)c(NC(=O)CC2SC(=Nc3ccccc3)N(CCc3ccccn3)C2=O)c1 (configuration not stated),6.9,-17,-3%,3,3,
COc1ccc(CCNC(=O)C(=O)NCC2CCCN2S(=O)(=O)c2ccccc2)cc1 (configuration not stated),0.0,nt,nt,3,nt,
O=C(Nc1ccccc1)Nc1ccc(Cl)nc1Cl,3.3,nt,nt,-7,nt,
O=c1ccc2cc(S(=O)(=O)NCCCc3ccccc3)ccc2[nH]1,5.5,nt,nt,4,nt,
N#C/C(=C(/O)C(Cl)(Cl)Cl)c1nc2ccccc2[nH]1,-3.0,nt,-2%,-3,nt,
C[C@@H]1C=C[C@](Cc2ccccc2)(C(=O)NCC2CC2)N1C(=O)c1ccccc1,0.6,-31,-23%,-9,4,
O=C(O)C1=CC2c3ccccc3C1c1ccccc12,1.5,nt,nt,4,nt,
CC1CC(Nc2ccccc2)=NC1(C)C (configuration not stated),1.9,-31,2%,2,1,
COc1cccc(NC(=O)CN(C)C(=O)COc2ccc3ccccc3c2)c1,1.0,-22,13%,0,6,

# Bioassay records deposited in PubChem by several laboratories.

# Some of the compounds tested; the hit share may differ from the screen's.
